High-throughput results (PubChem BioAssay)
Cruzain Triton – qHTS Assay for Promiscuous and Specific Inhibitors of Cruzain (with detergent); Cruzipain (Trypanosoma cruzi), P25779; purified cruzain, Z-FR-AMC fluorescence, 0.01% Triton; Potency, µM, inactives show max response, negative = inhibition, most hits filed as inhibitors; hit rate 0.43% among 200,000; active = well fitted curve in the direction sought with a large enough effect; inconclusive = small, poorly fitted or top-dose-only effect, or another doubt; inactive = no such curve, though single readings can be large; an effect the other way counts as inactive or inconclusive;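 note: plate controls were neutral wells for no effect and buffer without enzyme for full effect; nearly all actives have a fitted effect of over 40% in size; top concentration of the series not given in the record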
Target sequence (P25779 123-467 limits assumed): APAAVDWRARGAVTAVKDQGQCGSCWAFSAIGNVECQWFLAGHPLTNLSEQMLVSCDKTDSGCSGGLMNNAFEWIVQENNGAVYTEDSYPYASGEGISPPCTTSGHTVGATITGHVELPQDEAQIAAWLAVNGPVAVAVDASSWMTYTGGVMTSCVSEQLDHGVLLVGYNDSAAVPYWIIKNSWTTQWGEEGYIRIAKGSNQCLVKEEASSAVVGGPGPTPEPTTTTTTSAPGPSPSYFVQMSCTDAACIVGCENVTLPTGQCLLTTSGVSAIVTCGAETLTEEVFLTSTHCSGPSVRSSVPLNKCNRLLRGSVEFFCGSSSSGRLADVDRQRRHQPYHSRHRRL
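Detergent-containing arm of a paired screen for aggregation-based inhibition: 0.01% Triton X-100 present. Cruzain at 1.5 nM cleaved 2 uM Z-FR-AMC at pH 5.5 with 5 mM DTT; AMC fluorescence gain over 60 s measured activity.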
Marburg entry inh – qHTS for inhibitors of binding or entry into cells for Marburg Virus; Marburg virus pseudotyped entry inhibition, cell reporter; control for the full effect not named in the record; about a third of the inactives were read at about 46 µM; hit rate 1.8% among 300,000; Potency, µM (series often up to 37.8 µM), for the others: at the highest dose activity change, negative = inhibition, most hits filed as inhibitors; AID 540276, 2011; active = well fitted inhibition curve with a large enough effect; inconclusive = small, poorly fitted or top-dose-only effect, or effect the other way; inactive = flat fitted curve, though single readings scatter; tested in HEK293 cells; about a fifth of its hits are not listed in these tables; note: % is set by controls: 0 for no effect and ±100 for the full control effect; luciferase read-out
Lassa entry inh – qHTS for Inhibitors of binding or entry into cells for Lassa Virus | Lassa virus pseudotype entry inhibition, cell reporter; control for the full effect not named in the record | Potency, µM (doses to about 37.9 µM), without a hit: at the highest dose activity change, negative = inhibition, hits mostly inhibitors | hit rate 1.2% among 300,000; active means well fitted inhibition curve with a large enough effect; inconclusive means small, poorly fitted or top-dose-only effect, or effect the other way; inactive means flat fitted curve, though single readings scatter; tested in HEK293 cells; note: % is set by controls: 0 for no effect and ±100 for the full control effect; nearly all actives have a fitted effect of over 50% in size; luciferase read-out
2A StopGo – High Throughput Screening for Foot and Mouth Disease Virus Antivirals. Potency, µM (highest dose often 57.9 µM), for inactives: at the top dose signal change, negative = less light. hit rate 1.2% among 410,000. human cells with a luciferase reporter of 2A StopGo recoding; control for the full effect not named in the record; active = well fitted falling curve with a large enough effect; inconclusive = small, poorly fitted or top-dose-only effect; inactive = no such curve, though single readings can be large or run the other way; tested in HEK293T cells; note: % is set by controls: 0 for no effect and ±100 for the full control effect; nearly all actives have a fitted effect of over 45% in size; luciferase light after 4 h
RE007 growth inh – qHTS Assay for Inhibitors of the HIV-1 protein Vpr | S. pombe RE007 Vpr strain, BacTiter-Glo ATP luminescence, 24 h; control for the full effect not named in the record | AID 651644, 2012 | Potency, µM (doses to about 92.2 µM), for the others: top-dose activity change, negative = less growth | hit rate 0.21% among 360,000; active = well fitted falling curve with a large enough effect; inconclusive = small, poorly fitted or top-dose-only effect; inactive = no such curve, though single readings can be large or run the other way;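 note: % is set by controls: 0 for no effect and ±100 for the full control effect; nearly all actives have a fitted effect of over 50% in size; the assay follows cell death caused by Vpr and the record does not say whether a fall means rescue or toxicity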
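Fission yeast RE007 carrying one integrated HIV-1 vpr copy, seeded at OD 0.01 in PMG+AL medium with 23 nL pinned compound. Grown 24 h at 30 degrees; viability read by BacTiter-Glo luminescence after 5 min.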
Cruzain inh noDet – qHTS Assay for Promiscuous and Specific Inhibitors of Cruzain (without detergent). hit rate 2.3% among 200,000. AID 1476, 2009. Potency, µM, for inactives: max response, negative = inhibition, usual class: inhibitors. purified cruzain, Z-FR-AMC fluorescence, no detergent. Cruzipain (Trypanosoma cruzi), P25779; active = well fitted curve in the direction sought with a large enough effect; inconclusive = small, poorly fitted or top-dose-only effect, or another doubt; inactive = no such curve, though single readings can be large; an effect the other way counts as inactive or inconclusive;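 note: plate controls were enzyme without inhibitor for no effect and buffer without enzyme for full effect; nearly all actives have a fitted effect of over 40% in size; top concentration of the series not given in the record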
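Purified cruzain at 1.5 nM, pre-incubated 15 min with compound at room temperature in 100 mM sodium acetate pH 5.5, 5 mM DTT, 0.00005% Triton X-100. Reaction started with 2 uM Z-FR-AMC; AMC fluorescence increase over 60 s gives rate.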
NS1 inh – qHTS Assay for Inhibitors of Influenza NS1 Protein Function; S. cerevisiae slowed by influenza A NS1, growth recovery by OD600; Potency, µM (doses to about 46.1 µM), for the others: top-dose activity, positive = more growth; hit rate 0.4% among 270,000; note: actives are rising curves; nearly all actives have a fitted effect of over 50% in size
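Read-out: OD600 growth recovery of NS1-expressing budding yeast. Cells grown overnight at 30C in -URA glucose medium, washed, resuspended and diluted 1:100 in 2% galactose assay medium, pH 6.0. Same strain lacking NS1 served as positive control.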
SARS PLpro yeast – qHTS of Yeast-based Assay for SARS-CoV PLP; Potency, µM (series often up to 32.9 µM), without a hit: top-dose activity, positive = growth rescue; AID 485353, 2010; hit rate 0.19% among 330,000; S. cerevisiae expressing SARS-CoV PLpro, growth rescue; control for the full effect not named in the record; note: 0% is about no effect; nearly all actives have a fitted effect of over 55% in size; growth read by luminescence after 48 h
The depositor's hits bear a star; ? = inconclusive; / = not tested or not shown; & = joins results of further samples; [ ] = another dose, or the depositor's remark. Unless noted, calls come from the whole dose curve; as a rule, active means well fitted rising curve with a large enough effect; inconclusive means small, poorly fitted or top-dose-only effect; inactive means no such curve, though single readings can be large or run the other way. Potency is the fitted concentration of half-maximal effect.

SMILES	Cruzain Triton	Marburg entry inh	Lassa entry inh	2A StopGo	RE007 growth inh	Cruzain inh noDet	NS1 inh	SARS PLpro yeast
Cc1ccccc1C(=O)Nc1ccc(O)c2c(=O)cc(-c3ccccc3Cl)oc12	/	/	/	-6%	-5%	/	6%	1%
CC(=O)OC1C2CCC1C([N+]1(C)CCCCC1)CC2 (centres undefined)	/	?	-14%	2%	7%	/	/	2%
O=C(NCCCCCCCCNC(=O)c1cccc2ccccc12)c1cccc2ccccc12	/	-9%	-15%[46.1 µM]	-23%	-2%	/	/	/
COc1ccc(S(=O)(=O)Cc2ccc(C(=O)NC3CCCCC3)o2)cc1	3.8%	-8%&-8%[46.1 µM]	-18%[46.1 µM]	-19%&-5%	-2%	-16%	-11%	-11%
NNC(=O)c1cncc(Br)c1	/	-2%	0%	-15%	1%	/	0%	6%
COC(=O)c1ccc(Cn2c(SCC(=O)NCc3ccccc3)nc3ccccc32)cc1	-4.0%	/	26%[46.1 µM]	-25%	/	6%	/	/
CC1CN(c2nc(-c3ccc(Br)cc3)nnc2-c2ccccc2)CC(C)N1 (centres undefined)	-0.4%	?	?	-16%	-27%	-6%	-3%	3%
CCOc1ccccc1OCCCCn1c(-c2ccc(Cl)cc2)nc2ccccc2c1=O	-0.9%	2%[46.1 µM]	7%[46.1 µM]	0%	/	1%	/	/
O=C(O)c1ccc(N2C(=O)/C(=C\c3ccccc3)N=C2c2ccccc2)cc1	/	-8%[46.1 µM]	-2%[46.1 µM]	-24%	-12%	/	-35%	0%
COc1ccc(C2C=C(c3ccc(Cl)cc3)Nc3nc(NC(C)=O)nn32)cc1 (centres undefined)	21%	1%	/	/	/	?	10%	3%
Cc1cc(OCC(=O)NCc2ccncc2)ccc1Cl	/	-11%[46.1 µM]	16%	-6%	-6%	/	-3%	-1%
CCOc1ccc(CC(=O)Nc2c(C(=O)c3ccc(F)cc3)oc3ccccc23)cc1OCC	-0.2%	-1%[46.1 µM]	-22%[46.1 µM]	-30%	/	7%	/	/
CCCn1cnc2c(cnn2-c2ccc(F)cc2)c1=O	-1.6%	0%	6%	-24%	-17%	-9%	-1%	-11%
COCCCN1CC23C=CC(O2)C(C(=O)O)C3C1=O (centres undefined)	1.5%	/	/	-2%	12%	-4%	6%	0%
O=S(=O)(c1ccc(Cl)c(NC(=S)N/N=C/c2c(F)cccc2F)c1)N1CCOCC1	-6.6%	?	-6%[46.1 µM]	?	10%	?	-2%	24%
CCc1cccc(C)c1Nc1c(-c2cccc(O)c2)nc2nc(C)cc(C)n12	-8.1%	-2%[46.1 µM]	?	-19%	/	7%	/	/
COc1ccccc1C=NNc1nc(C)cc(=O)[nH]1	/	23%	8%[46.1 µM]	6%	-2%	/	/	/
Cc1cc(C)nc(N(C#N)S(=O)(=O)c2ccc(Br)cc2)n1	6.1%	-4%	/	/	/	12%	-6%	2%
O=C(NC12CC3CC(CC(C3)C1)C2)c1cncc(Br)c1	/	?	-21%	-22%	-23%	/	-25%	-9%
COc1ccc(N2CCN(C(=O)c3ccc4nc(N5CCCCC5)sc4c3)CC2)cc1	-4.9%	0%	/	55%[activator]	0%	-1%	-82%	2%
COc1ccc(N2CCN(c3nc4ccccn4c(=O)c3C=O)CC2)cc1	-4.6%	25%	-6%	-6%	14%	-2%	-3%	6%
O=C1c2ccccc2C(Nc2ccccc2)N1c1cccnc1 (centres undefined)	6.7%	/	/	-7%	-10%	-2%	-3%	1%
Cc1cc(C(=O)N2CCCC(N3CCN(c4cccc(Cl)c4)CC3)C2)nc(C)n1 (centres undefined)	/	-18%	22%	-11%	-8%	/	7%	1%
Cn1c(O)c(C=Nc2ccccc2-c2ccccc2)c(=O)n(C)c1=O	/	?	2%[46.1 µM]	-22%	?	/	-2%	-2%
COc1ccc(Br)c(C(=O)Nn2c(C)nc3ccccc3c2=O)c1	2.9%	-23%	-18%	/	-1%	1%	-83%	-14%
O=C(Nc1nc(-c2cccs2)cs1)c1cccc(S(=O)(=O)N2CCCCCC2)c1	1.0%	?	-16%	3%	-3%	?	?	5%
CC(C)n1c(NCc2cccs2)nc2ccccc21	7.7%	-3%	-9%	-12%	-15%	10%	0%	-7%
COc1ccc(/C=N/NC(=O)c2ccc(O)cc2)cc1CN1CCCc2ccccc21	-1.7%	-25%	?	40µM*	0%	4%	?	-8%
COc1ccc(F)c(-c2nc(CN3CCC(c4ccccc4)CC3)c(C)o2)c1	/	-22%[46.1 µM]	2%	-29%	0%	/	-2%	-1%
CCOc1ccc(S(=O)(=O)N2CCN(C(=O)c3ccc(C)c(S(=O)(=O)N4CCOCC4)c3)CC2)cc1	/	?	?	?	1%	/	/	-1%
CCC(=O)N1CCN(c2ccc(Cl)cc2NC(=O)c2cccc([N+](=O)[O-])c2)CC1	/	0%[46.1 µM]	-4%[46.1 µM]	-10%	2%	/	/	0%
O=C1OCC2=C1C(c1ccccc1)CC(=O)N2c1cccc(F)c1 (centres undefined)	/	-15%[46.1 µM]	12%	10%	-9%	/	/	1%
CCOC(=O)c1c(CC(C)C)csc1NC(=O)CCl	-10%	-13%	-13%	?	?	8%	-51%	-2%
Cc1cccc(C(=O)N2N=C(c3ccc(NS(C)(=O)=O)cc3)CC2c2cccs2)c1 (centres undefined)	/	/	/	?	-1%	/	17%	0%
Cc1nc2nc[nH]n2c(=O)c1NS(C)(=O)=O	4.5%	16%	2%	18%	3%	-7%	-1%	9%
COCCNC(=O)C1CCC(CNS(=O)(=O)c2c(C)cc(C)cc2C)CC1 (centres undefined)	/	/	/	5%	-4%	/	-5%	2%
COc1ccc(NS(=O)(=O)c2cc(NC(=O)c3ccc(C)s3)ccc2N2CCOCC2)cc1	/	?	?	32%[activator]	9%	/	?	-1%
CCN(CC)C(=O)CSc1nc2cc3c(cc2c(=O)n1CCCC(=O)NCc1ccc2c(c1)OCO2)OCO3	0.0%	/	-28%[46.1 µM]	3%	/	13%	/	/
CCCc1[nH]nc2c1C(c1ccccc1OC)C(C#N)=C(N)O2 (centres undefined)	-3.7%	3%	23%	28µM*	-12%	-3%	-2%	-16%
Cc1cccc(OC(=O)c2snnc2C)c1C	-4.4%	14%[46.1 µM]	-15%[46.1 µM]	3%	/	-1%	/	/
O=C(C1CCC(Cn2c(=O)c3sccc3n(Cc3ccccc3)c2=O)CC1)N1CCOCC1 (centres undefined)	-5.1%	/	-3%[46.1 µM]	-23%	/	?	/	/
c1ccn2c(c1)nc1c2nc2ccccn21	-23%	?	1%	62%[activator]	-7%	?	-12%	-3%
Cc1ccc(NC(=O)CN2C(=O)S/C(=C/c3ccncc3)C2=O)cc1	/	?	1%	?	-11%	/	-10%	9%
Cc1ccc(N2CC(C(=O)N/N=C/c3c(F)cccc3Cl)CC2=O)cc1 (centres undefined)	/	-8%	-1%	0%	-36%	/	-8%	-1%
CCN1CCN(CCC(=O)Nc2ccc(Br)cc2)CC1	/	?	20%[46.1 µM]	-18%	-1%	/	/	1%
CCOC(=O)C1=C(C)N(C)C(=O)NC1c1c(O)ccc2ccccc12 (centres undefined)	/	?	19%[46.1 µM]	-7%	3%	/	2%	3%
CN(C(=O)CS(=O)(=O)c1cn(CC(=O)N2CCCCC2)c2ccccc12)c1ccccc1	/	-16%	?	-10%	-2%	/	13%	1%
COc1ccc(CCC(=O)Nc2nc3ccccc3[nH]2)cc1OC	-2.4%	13%	25%	6%	-12%	1%	7%	-5%
CCn1c(CCc2ccccc2)nnc1SCC(N)=O	/	-8%[46.1 µM]	15%[46.1 µM]	-9%	9%	/	9%	-1%
CC(C)C(NC(=O)c1ccccc1F)C(=O)NCc1ccc(S(=O)(=O)N2CCOCC2)cc1 (centres undefined)	/	-24%[46.1 µM]	0%	-21%	2%	/	/	-4%
COc1ccccc1C(=O)Nc1cccc(C(=O)OCc2cc(=O)n3ccsc3n2)c1	0.1%	/	-19%[46.1 µM]	-8%	/	16%	/	/
CSCCC(NC(=O)c1ccccc1)C(=O)NCc1ccco1 (centres undefined)	-1.1%	3%	1%	/	-5%	-7%	-2%	1%
O=C(CSc1nn(-c2ccc(F)cc2)c(=S)s1)NC1CCS(=O)(=O)C1 (centres undefined)	/	-11%[46.1 µM]	-6%	-1%	-15%	/	2%	0%
COc1ccc2c(c1)O[C@@H](c1cccc(C(F)(F)F)c1)[C@H](OC(=O)Nc1ccc(OC(F)F)cc1)C2=O	-1.2%&-1.9%	2%[14.2 µM]	?	-17%	9%	?	4%	-20%
CCC(=O)N1CCc2cc(Br)cc(S(=O)(=O)NCc3ccccc3OC)c21	/	-10%[46.1 µM]	/	44%[activator]	-14%	/	10%	-1%
Cn1cc(S(=O)(=O)N2CCN(c3cccc(C(F)(F)F)c3)CC2)c(=O)n(C)c1=O	-0.3%	/	/	-21%	2%	?	-80%	0%
O=C(CCOc1ccccc1)Nc1ccc(Cl)c(S(=O)(=O)N2CCOCC2)c1	/	?	-14%	-28%	0%	/	/	-8%
CCOc1ccc(S(=O)(=O)NCCC2=CCCCC2)c2ccccc12	-0.2%	-9%	25%[14.3 µM]	93%[activator]	-5%	-3%	6%	-27%
CCOC(=O)c1cc(-c2ccccc2)n(CC2CC(c3ccc(OC)cc3)=NO2)n1 (centres undefined)	/	/	/	0%	2%	/	-48%	-4%
